Bioassay records (PubChem)
Vif TR-FRET: inhibitors of Vif binding to APOBEC3G peptide, primary screen, biochemical, TR-FRET, GST-Vif 1-94, biotin-A3G peptide, dose response retest (AID 1117319); TR-FRET GST-Vif / biotin-A3G peptide binding; higher % means a stronger effect; test concentration not given here; strong numbers were not always called active; inhibition, %, or IC50 in µM where a hit was titrated; actives 0.57% (n = 260,000);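 active = above the screen mean plus three standard deviations and confirmed in dose response; inconclusive = results disagree or hit not tested in dose response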;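 also: Vif residues 1-94 fused to GST binding biotinylated APOBEC3G peptide 110-148; 0% = full assay without inhibitor and 100% = GST in place of GST-Vif; retest series ran down from 100 µM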
RanGTP-Imp inh: inhibitors of RanGTP-importin-beta interaction, primary screen, biochemical, FRET, CFP-Ran, YFP-importin-beta, homogeneous; cell-free CFP-Ran/YFP-importin-beta FRET ratio; inhibition, % (test concentration not listed); actives 1.1% (n = 300,000); AID 2216;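 active = most replicates above 15%; inconclusive = exactly half above 15%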;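 also: 0% = DMSO wells and 100% = Ran loaded with GDP instead of GTP; wells of about 40 µL received 100 nL stock; the first replicate is given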
AF4-AF9 inh: MLL-AF4/AF9 protein interaction inhibition | P42568 | AlphaScreen, biotin-AF4 peptide binding to FLAG-AF9 | actives 0.47% (n = 350,000) | inhibition, % at 10 µM | AID 651704;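 active = every replicate reaching a set inhibition limit, whatever the replicate mean, cut at about 25% in these data; inconclusive = mean inhibition reaches that limit but some replicates miss it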;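 also: 0% = plate neutral control median and 100% = total signal loss; the record names both 10 and 1 µM as test concentration; the first replicate is given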
Target sequence (P42568 whole entry, looked up): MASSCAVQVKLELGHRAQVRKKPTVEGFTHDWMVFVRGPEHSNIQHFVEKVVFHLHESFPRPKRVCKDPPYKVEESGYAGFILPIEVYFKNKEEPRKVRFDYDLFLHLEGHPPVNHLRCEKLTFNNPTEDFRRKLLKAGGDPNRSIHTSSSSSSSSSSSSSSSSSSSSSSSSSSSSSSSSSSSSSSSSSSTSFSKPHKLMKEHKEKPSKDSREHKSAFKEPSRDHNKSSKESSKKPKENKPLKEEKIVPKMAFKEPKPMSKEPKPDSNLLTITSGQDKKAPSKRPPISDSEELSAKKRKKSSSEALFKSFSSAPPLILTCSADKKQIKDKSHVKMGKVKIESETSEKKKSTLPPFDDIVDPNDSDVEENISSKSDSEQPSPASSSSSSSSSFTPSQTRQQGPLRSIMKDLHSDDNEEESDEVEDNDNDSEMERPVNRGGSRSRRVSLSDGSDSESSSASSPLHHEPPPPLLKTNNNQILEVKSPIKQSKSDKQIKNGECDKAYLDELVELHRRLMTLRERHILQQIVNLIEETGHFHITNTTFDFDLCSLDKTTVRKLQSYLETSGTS
UCH37 inh: inhibitors of human deubiquitinating enzyme UCH37 | Q9Y5K5 | purified proteasome/UCH37, Ub-AMC cleavage fluorescence | inhibition, % (concentration not given with the values) | actives 0.33% (n = 330,000);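 active = mean of two replicates above 20%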;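 also: 0% = compound-free wells with enzyme and 100% = wells lacking proteasome; stock transfer was 100 nL into about 20 µL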
Target sequence (Q9Y5K5 whole entry, looked up): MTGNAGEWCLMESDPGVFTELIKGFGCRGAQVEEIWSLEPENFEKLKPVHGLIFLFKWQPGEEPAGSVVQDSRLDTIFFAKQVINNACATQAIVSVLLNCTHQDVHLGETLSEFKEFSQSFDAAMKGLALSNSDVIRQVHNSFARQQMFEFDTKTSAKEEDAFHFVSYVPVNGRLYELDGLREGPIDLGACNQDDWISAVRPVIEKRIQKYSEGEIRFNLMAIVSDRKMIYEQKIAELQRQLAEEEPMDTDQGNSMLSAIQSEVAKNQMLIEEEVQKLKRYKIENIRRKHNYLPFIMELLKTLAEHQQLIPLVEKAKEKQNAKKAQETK
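Material: human UCH37 enzyme supplied as purified proteasome complex / Amount: 0.15 nM proteasome as dispensed / Buffer or medium: pH 7.4 Tris-HCl (50 mM) with ovalbumin, ATP-MgCl2, DTT / Times: preincubation 30 min, reaction 25 min, room temperature / Technique: AMC fluorescence from Ub-AMC cleavage, excitation 355 nm, emission 460 nm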
HNF4A DNA FP: change in binding of human HNF4 alpha to DNA; actives 0.3% (n = 360,000); HNF4a-FITC DNA binding, fluorescence polarization, 1 h; activity change, % at 10 µM; in the data active = activity change above about 30%, passing the limit was not always enough;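 also: controls were the assay level and a saturating level of protein; the project sought stronger binding though the title names inhibitors; some compounds called inactive have numbers as strong as hits; positive values seem to mean higher polarization but the record does not say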
FGF22 binding: FGF22 (human) thermal shift binding | recombinant FGF22 thermal shift, SYPRO orange fluorescence; percent of sucrose octasulfate shift, DMSO zero | actives 1.5% (n = 340,000) | calls only at 9.99 µM | AID 651658;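 active = melting point raised past a set limit in the mean and every replicate; inconclusive = no clear call; three in four hits are not shown here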
Target sequence (Q9HCT0 whole entry, looked up): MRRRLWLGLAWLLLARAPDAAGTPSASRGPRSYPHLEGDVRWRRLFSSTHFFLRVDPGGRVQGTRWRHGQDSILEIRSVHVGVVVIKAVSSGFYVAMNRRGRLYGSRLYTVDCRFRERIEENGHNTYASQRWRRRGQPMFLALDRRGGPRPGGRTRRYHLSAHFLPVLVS
E coli growth: blocks Escherichia coli growth; OD600 absorbance (concentration not given with the values); actives 0.21% (n = 330,000); OD600, 23 h; active compounds read low; AID 1053175;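 active = OD600 absorbance below the run mean of sample wells minus 3.6 SD, in any replicate, cut at about 0.56 in these data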;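 also: stock transfer was 300 nL into about 60 µL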
Active calls of the source: *; i = inactive; u = inconclusive; x = no result given; + = active, no number. Some of the compounds tested; count on the stated rates, not on these rows.

SMILES	Vif TR-FRET	RanGTP-Imp inh	AF4-AF9 inh	UCH37 inh	HNF4A DNA FP	FGF22 binding	E coli growth
Cc1nc(-c2ccc(S(=O)(=O)N3CCN(c4cccc(C)c4C)CC3)cc2)co1	x	5.2	-0.3	-0.6	-7.5	i	0.663
Cc1c(-c2ccnc3cc(C(=O)O)nn23)cnn1C	x	-2.7	-2.3	i	-2.0	x	0.649
COc1ccc(NCc2nc3ccccc3n2CCOc2ccccc2)cc1	49µM*	-1.9	x	3.3	-0.5	x	0.645
Cc1cc(C)n(C(=O)CN(C)S(=O)(=O)c2ccc([N+](=O)[O-])cc2)n1	-1.0%	2.2	7.4	2.3	4.3	i	0.652
C=CCn1c(O)c(N=NC(=S)Nc2ccccc2C)c2cc(S(=O)(=O)N3CCOCC3)ccc21	5.5%	0.0	9.4	3.3	-2.7	i	0.735
OCc1cc(-c2ccc(Cl)c(Cl)c2)on1	-5.6%	3.0	-3.2	0.5	-3.5	i	0.628
CC1(C(=O)Nc2cccc(C#N)c2)CCN1C(=O)C1(c2ccccc2)CC1 (centres undefined)	x	x	0.2	x	-2.7	i	x
Cc1c(C(=O)NCc2ccccc2CN2CCCC2)oc2ccccc12	4.1%	x	1.9	1.6	-0.2	i	0.614
CN1C(=CC=C2C=C(I)C(=O)C(I)=C2)C(C)(C)c2ccccc21	18.7%	x	-1.8	10.3	208.9	i	0.773
CC(=O)N1N=C2c3ccccc3CCC2C1c1ccc(F)cc1 (centres undefined)	-1.3%	-1.4	-0.4	0.6	-1.4	i	0.656
O=C(OCC(=O)N1CCOCC1)c1ccccc1O	x	-0.8	-0.4	2.5	0.1	i	0.673
CCOC(=O)Cn1nc(C)cc1NC(=O)c1ccncc1	u	2.3	-1.8	-3.6	1.2	i	0.692
CSc1nc(SCC(=O)NCc2ccco2)c2c3c(sc2n1)CN(C)CC3	20.4%	0.1	5.3	-18.3	-0.5	i	0.653
O=C(NCc1cccc(C(F)(F)F)c1)c1cc(Cl)ccc1Cl	x	3.5	-0.9	6.7	-0.2	i	0.725
Cc1cccc(C)c1OCCCCN1CCNCC1	x	-0.1	0.1	2.0	-2.5	i	0.677
COc1ccccc1C(=O)NCCC(=O)NCC1CCCO1 (centres undefined)	-4.1%	x	1.9	-5.5	-1.1	i	0.691
CN(C)CCC(=O)c1ccc(F)cc1	1.3%	1.1	-3.3	0.8	-1.1	i	0.694
O=C(Nc1cccc(C(F)(F)F)c1)N(Cc1ccc(Cl)cc1)CC(O)C(F)(F)F (centres undefined)	-0.4%	3.0	x	2.5	-4.7	x	0.711
O=C(c1cccnc1)N1CCN(S(=O)(=O)c2ccc(Cl)cc2)CC1	10.9%	-2.1	x	2.5	1.9	x	0.723
COc1ccc(CCNC(=O)COC(=O)c2ccc(Br)o2)cc1	11.8%	-0.3	x	0.8	-0.3	x	0.722
COc1ccc(C(=O)NC(=S)NNC(=O)c2cnccn2)cc1	u	0.4	x	8.6	0.5	x	0.434*
O=C(O)c1ccccc1OCc1nc2ccccc2s1	x	-3.9	-1.2	5.0	-0.2	i	0.709
COc1ccc(Cl)cc1NC(=S)NCCN1CCOCC1	x	-1.5	1.0	-3.1	-0.3	i	0.67
CC1=NN(c2nc(-c3ccc(C)cc3)cs2)C(=O)C1N=Nc1cccc(O)c1 (centres undefined)	14.5%	1.0	6.0	4.9	1.9	i	0.717
COCCCNC(=S)Nc1ccc(OC(F)F)cc1C	-14.7%	-4.4	-1.9	-0.2	-2.3	i	0.669
Cc1ccc(C(=O)OCC(=O)Nc2ccc(C)c(S(=O)(=O)N3CCCCC3)c2)o1	6.7%	x	-14.7	x	0.3	x	x
Cc1cc(C)nc(NC(=O)c2ccc(Cl)cc2Cl)n1	1.9%	1.3	-6.3	3.1	9.8	i	0.7
Cc1ccc(CCNC(=O)c2cccc(N3CCCC3=O)c2)cc1	x	2.2	x	0.5	1.4	x	0.69
CCC(=O)Nc1ccc(C(=O)NNC(=O)c2ccc(Cl)cc2)cc1	x	-0.6	-0.7	2.8	0.0	i	0.629
CCOC(=O)CSc1[nH]c(=O)cc(C)c1C#N	1.6%	u	x	0.7	-0.7	x	0.71
COc1cc(NC(=O)COc2ccc(Cl)cc2)ccc1-c1cc2ccccc2oc1=O	x	-1.5	-11.5	-67.5	0.5	i	0.666
COC(=O)C1=CN(c2c(C)cc(C)cc2C)C(N)=C(C#N)C1c1cccc(F)c1 (centres undefined)	x	x	10.0	x	4.0	i	x
Cc1cc(Nc2ccc(Cl)cc2)n2ncnc2n1	x	1.9	3.6	-1.7	-3.6	i	0.711
Cn1c(CNC(=O)c2ccc(Cl)cc2)nnc1SCC(=O)N1CCOCC1	x	-1.3	-2.0	-0.2	0.9	i	0.662
COC(=O)Cc1ccc(NC(=S)NCc2ccccc2)cc1	6.3%	-1.7	-5.5	1.4	-2.8	i	0.697
COc1ccc(/C=C/c2nnc(NC(=O)C(C)(C)C)s2)cc1	-4.6%	5.7	x	-83.4	3.2	i	0.654
O=C(CC1C(=O)NCCN1Cc1cccc(C(F)(F)F)c1)NCCc1cnccn1 (centres undefined)	x	4.4	0.0	-1.7	-2.5	i	0.659
Cc1cccc(OCc2nnc(SCC(=O)O)n2Cc2ccccc2)c1	-4.9%	4.3	-3.0	3.2	1.4	i	0.694
CCCC[N+](C)(C)CCC(=O)NC(C)(C)CS(=O)(=O)[O-]	17.8%	2.5	x	3.2	-2.5	x	0.728
O=C(Nc1c2c(nn1-c1ccccc1)CS(=O)(=O)C2)C1CCCC1	x	4.9	1.0	0.0	-2.4	i	0.693
Cc1nnsc1Sc1ccccn1	3.2%	0.8	-0.3	2.3	-3.3	i	0.673
Cc1cc(C(=O)OCC(=O)N2C(C)CCCC2C)c(C)o1 (centres undefined)	-2.1%	-3.0	x	0.0	1.8	x	0.815
COc1ccc(C2CCc3cc4c(cc3C2=NOC(C)=O)OCO4)cc1OC (centres undefined)	3.9%	x	8.8	x	5.1	i	x
CCOC(=O)N1CCN(C(c2ccnc3ccccc23)c2nnnn2-c2ccc3c(c2)OCCO3)CC1 (centres undefined)	x	x	1.0	x	-0.7	i	x
Cc1ccc(N2NC(=O)/C(=C/c3ccc(-c4ccc(Cl)c(C(=O)O)c4)o3)C2=O)cc1	1.0%	-0.7	-2.9	5.5	-4.7	i	0.748
O=C(COc1ccccc1)OCC(=O)c1ccc(O)cc1O	13.8%	x	-0.1	3.9	3.0	i	0.655
COc1ccc(NC(=O)c2ccc3c(c2)CCN3S(C)(=O)=O)cc1	0.6%	x	-1.5	x	-3.4	i	x
O=C(NCc1cccc(Cl)c1)c1cnn2c1NC(c1ccco1)CC2C(F)(F)F (centres undefined)	-3.3%	u	x	4.2	6.9	x	0.691
Cc1ccc(C(=O)Nc2cccc(-c3ccc(N4CCOCC4)nn3)c2)cc1[N+](=O)[O-]	-3.4%	1.0	-0.8	2.7	2.3	i	0.673
CSc1ncc(Cl)c(C(=O)Nc2cccc3ccccc23)n1	x	0.6	3.6	x	0.9	i	x
COc1ccc(CN2CCN(c3ccc(F)cc3)CC2)c(OC)c1OC	-7.7%	-3.3	x	-1.6	4.2	x	0.689
Cc1ccc2c(c1)Sc1c(ccc3ccccc13)N2	0.3%	-8.6	2.6	-3.3	-25.0	i	0.729
COc1ccc(Cl)cc1NC(=O)CSC1=NN2CCCC(=O)N=C2S1	x	0.2	1.9	3.2	2.3	i	0.698
OCC[C@H]1C[C@H](O)[C@@H](O)[C@@]2(CCCO2)O1	x	2.5	-4.1	1.5	-3.4	i	0.809
CCOC(=O)c1nnn(-c2nonc2N)c1CSc1ccc(C)cc1	3.7%	3.8	x	0.7	4.9	x	0.751
CCCn1cnnc1CNC(=O)C1CCC(=O)N(CCc2ccc(OC)cc2)C1 (centres undefined)	x	-0.3	-2.8	-0.1	0.0	i	0.689
COC(=O)C1=C(C)NC(=O)C1(Nc1ccc(Cl)cn1)C(F)(F)F (centres undefined)	-5.2%	-0.7	x	0.7	1.3	x	0.706
CC(NCc1ccco1)C(=O)N1CCc2ccccc2C1 (centres undefined)	7.2%	8.2	5.5	0.6	0.9	i	0.662
S=c1[nH]c(-c2ccccc2)cs1	2.3%	-6.6	-4.8	x	2.7	i	x
CCOc1ccccc1C(=O)NCC(=O)Nc1ccc2c(c1)OCO2	-1.5%	x	0.5	3.4	-3.1	i	0.661
Continued:
SMILES	Vif TR-FRET	RanGTP-Imp inh	AF4-AF9 inh	UCH37 inh	HNF4A DNA FP	FGF22 binding	E coli growth
Cc1ccc(C(=O)NCCc2c[nH]c3ccccc23)c(C)c1	x	3.2	-3.1	2.4	2.5	i	0.676
CCN1CCN(C(CNS(=O)(=O)c2ccccc2)c2ccccc2)CC1 (centres undefined)	-2.3%	0.8	0.2	1.0	0.0	i	0.686
COc1ccccc1CNc1nc(NCC2CC2)nc2ccsc12	x	x	6.2	x	2.8	i	x
COc1ccc(N2CC(C(=O)N[C@@H](CC(C)C)C(=O)NC3CCCC3)CC2=O)cc1 (some centres undefined)	3.0%	-1.2	-6.6	1.1	-1.6	i	0.647
Cc1cccc(CNC(=O)c2ccc3c(c2)N(C)CCS3)c1	x	4.4	-7.8	-46.5	-0.1	i	0.653
O=C(CN1C(=O)NC2(CCCC2)C1=O)NCc1cccc(Cl)c1	1.4%	x	1.4	2.0	-0.1	i	0.661
Cc1ccc(C)c(Cn2nc3c4ccccc4n(Cc4ccccc4)cc-3c2=O)c1	x	1.6	0.1	3.9	1.0	i	0.674
CC(=O)Nc1ccc2nc(-c3cccs3)[nH]c2c1	6.6%	0.9	x	-197.4	-0.3	x	0.742
Cc1ccc2occ(-c3nn[nH]n3)c(=O)c2c1	-2.7%	9.7	-1.8	1.5	-3.2	i	0.688
COC(=O)Cc1ccc(NC(=S)NCc2ccc(Cl)cc2)cc1	x	2.4	x	0.7	3.5	x	0.674
OC(CNc1nc(C(F)(F)F)nc2ccccc12)c1ccccc1 (centres undefined)	x	2.0	-2.6	8.1	0.2	i	0.664
S=C(NCC1CCCCC1)Nc1cccnc1	-6.8%	-0.4	-6.6	4.4	-1.7	i	0.665
COCC(=O)NC1(c2nnnn2CCOC(=O)Nc2ccc(Cl)cc2)CCCCC1	8.6%	3.3	0.2	-1.7	4.4	i	0.652
O=C(OCC(=O)N1CCN(c2ccccc2)CC1)c1ccc(Cl)nc1	-4.5%	3.7	-2.0	0.8	-0.6	i	0.669
Fc1ccc(CNc2ncccn2)cc1	x	-1.4	0.2	1.5	5.7	i	0.668

Three compounds drawn at random from those above, as already listed:
SMILES	Vif TR-FRET	RanGTP-Imp inh	AF4-AF9 inh	UCH37 inh	HNF4A DNA FP	FGF22 binding	E coli growth
CC(=O)Nc1ccc2nc(-c3cccs3)[nH]c2c1	6.6%	0.9	x	-197.4	-0.3	x	0.742
COCC(=O)NC1(c2nnnn2CCOC(=O)Nc2ccc(Cl)cc2)CCCCC1	8.6%	3.3	0.2	-1.7	4.4	i	0.652
Cc1cccc(CNC(=O)c2ccc3c(c2)N(C)CCS3)c1	x	4.4	-7.8	-46.5	-0.1	i	0.653

Additional records.
SMILES	Vif TR-FRET	RanGTP-Imp inh	AF4-AF9 inh	UCH37 inh	HNF4A DNA FP	FGF22 binding	E coli growth
COc1ccc(Nc2nc(NCc3ccco3)nc(N/N=C/c3ccc(O)cc3)n2)cc1	8.5%	1.3	11.6	x	-2.4	+	x
CCN1C(=C2C(=O)c3ccccc3C2=O)C=Cc2ccccc21	26.5%	-3.7	x	10.5	2.8	x	0.704
O=C(O)c1cc(O)ccc1NC(=O)c1cccc2ccccc12	2.3%	2.4	-15.3	5.7	0.3	i	0.663
CCn1c(SCC(=O)NCC2CCCO2)nnc1-c1ccc(Cl)cc1 (centres undefined)	8.9%	25.7*	-2.8	2.5	2.1	i	0.645
